Screening results as filed in PubChem BioAssay.
GIV Gai3 FP: GIV-Galpha-i interaction inhibition. Galpha-i3/FITC-GIV peptide fluorescence polarization, 90 min; stronger effect = lower value; scaled: aluminum fluoride 0%, vehicle 100%. AID 1224905. 210,000 compounds, 0.42% hits. P08753. percent of control (FP), % (concentration not given with the values);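 active = replicate mean at 85% of control or lower, very high polarization wells dropped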;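 also: wells of about 15 µL received 100 nL stock; the first replicate is given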
Target sequence (P08753 whole entry, looked up): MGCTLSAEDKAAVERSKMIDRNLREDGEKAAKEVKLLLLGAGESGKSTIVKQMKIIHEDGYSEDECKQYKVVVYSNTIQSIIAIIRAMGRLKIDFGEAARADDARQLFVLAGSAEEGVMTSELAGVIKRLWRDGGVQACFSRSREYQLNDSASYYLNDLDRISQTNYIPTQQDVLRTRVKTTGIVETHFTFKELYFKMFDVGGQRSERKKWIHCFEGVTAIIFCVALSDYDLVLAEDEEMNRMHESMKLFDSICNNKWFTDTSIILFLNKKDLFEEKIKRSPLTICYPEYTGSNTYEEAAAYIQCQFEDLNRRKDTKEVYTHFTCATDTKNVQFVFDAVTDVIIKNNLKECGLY
HCMV NEC inh: disrupts HCMV UL50-UL53 complex binding; HTRF UL50-UL53 interaction, normalized percent inhibition; inhibition, % (no concentration beside the values); 190,000 compounds, 0.15% hits; AID 1918969;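 active = both replicates at 50% or more, plus weaker picks with an unusually low signal ratio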;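 also: stock transfer was 100 nL into about 20 µL; 0% = negative control wells and 100% = wells with untagged competitor protein; inactives centre near -12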
Sa growth inh: S. aureus growth inhibition; 170,000 compounds, 0.53% hits; S. aureus RN4220 growth, OD600, 20 h, 42 °C; stronger effect = lower value; relative growth, % (concentration not given with the values);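 active = growth at 42 °C up to 50% and 20 or more points under that at 30 °C, or under 10% at both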;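 also: 300 nL library stock went into each well; scaled to the means of positive and negative controls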
Sa growth inh second temp: recorded beside Sa growth inh, whose call it bears; relative growth, %; measured here: growth at 30 °C;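 optical density after 20 h as mean of two plates; 100% = untreated growth and lower means inhibition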
* = called active by the depositor; nt = not tested or not shown.

The opening three entries, to show the layout:
1. CC(C)C(NC(N)=O)C(=O)NCc1ccc(Cl)cc1Cl (centres undefined)
2. Cc1cccc(CN2CCN(CC(=O)NCc3ccc4c(c3)OCO4)C2=O)c1
3. CC(C)Cn1c(=O)c2sccc2n2c(CCCC(=O)NCc3ccccn3)nnc12

compound no.	1	2	3
GIV Gai3 FP	nt	102	109
HCMV NEC inh	-18	-19	-15
Sa growth inh	92	94	nt
Sa growth inh second temp	90	78	nt

All compounds of this part, from the start:
1. CC(C)C(NC(N)=O)C(=O)NCc1ccc(Cl)cc1Cl (centres undefined)
2. Cc1cccc(CN2CCN(CC(=O)NCc3ccc4c(c3)OCO4)C2=O)c1
3. CC(C)Cn1c(=O)c2sccc2n2c(CCCC(=O)NCc3ccccn3)nnc12
4. CCCCN(CC)CCCNC(=O)c1nn(C)c2c1CS(=O)(=O)c1ccccc1-2
5. COc1ccc(OC)c(/C=C/C(=O)OC(C)C(=O)Nc2ccc(S(=O)(=O)N3CCOCC3)cc2)c1 (centres undefined)
6. COc1cc2c(cc1OC)C(C(=O)NC1CCCCC1)C(c1cccnc1)N(C)C2=O (centres undefined)
7. O=C(NNc1cc(Cl)ccc1Cl)C1CCCS1 (centres undefined)
8. CC1(C)C2CC=C(/C=N/O)C1C2 (centres undefined)

compound no.	1	2	3	4	5	6	7	8
GIV Gai3 FP	nt	102	109	98	nt	101	101	nt
HCMV NEC inh	-18	-19	-15	-20	-10	-30	-9	8
Sa growth inh	92	94	nt	89	126	82	106	94
Sa growth inh second temp	90	78	nt	86	98	83	86	102

9. CCS(=O)(=O)c1ccc(O)c(NC(=O)c2ccncc2)c1
10. Cc1ccc(Nc2cc(N3CCCCCC3)c3nonc3c2[N+](=O)[O-])cc1Cl
11. COc1cc2c(cc1OC)CN(S(=O)(=O)c1cccc(S(=O)(=O)N3CCOCC3)c1)CC2
12. Cn1c(=O)n(C)c2cc(CNc3ccc4c(c3)OCO4)ccc21
13. CCOC(=O)CSc1nnc(NCc2ccccc2)s1
14. CCC(C)OC(=O)C1=C(C)NC(=O)NC1c1ccc(OC)c(OCc2ccccc2)c1 (centres undefined)
15. CC1Cc2nc(SC/C=C/c3ccccc3)n(C)c(=O)c2S1 (centres undefined)
16. O=C(Cc1n[nH]c(=O)c2ccccc12)Nc1ccccc1OC(F)F

compound no.	9	10	11	12	13	14	15	16
GIV Gai3 FP	nt	112	105	105	nt	99	96	nt
HCMV NEC inh	-12	2	-6	-27	16	6	nt	-14
Sa growth inh	82	nt	nt	nt	110	nt	68	110
Sa growth inh second temp	90	nt	nt	nt	99	nt	56	96

17. Oc1ccccc1CNCC12CC3CC(CC(C3)C1)C2
18. CC(=O)Nc1cc(C(=O)NCc2ccc(F)cc2)ccc1Sc1ccc(F)cc1
19. CSC1=N/C(=C\c2ccc(Cl)cc2)C(=O)N1N(C)C
20. COC(=O)c1ccccc1NC(=S)Nc1ccccn1
21. Cc1nn(CC(=O)NCCc2ccccc2Cl)c(=O)c2nn(-c3ccccc3)c(C)c12
22. Cc1cc(C(=O)CN2C(=O)NCC(C)C2=O)c(C)n1C (centres undefined)
23. COC(=O)C1Cc2ccccc2CN1Cn1nc2sc3ccccc3n2c1=S (centres undefined)
24. COc1cc(-c2nc3ccccc3c(=O)[nH]2)cc(Cl)c1O

compound no.	17	18	19	20	21	22	23	24
GIV Gai3 FP	nt	107	104	nt	118	nt	nt	103
HCMV NEC inh	-24	nt	-32	8	nt	-4	-33	-2
Sa growth inh	123	126	81	73	107	110	38	102
Sa growth inh second temp	86	92	83	96	100	84	31	96

25. COc1ccc(-c2ccccc2)cc1Br
26. CN(CC(=O)NCc1ccccc1)S(=O)(=O)c1cnc[nH]1
27. CC(C)CC(=O)Nc1ccc(Cl)c(-c2nc3ccccc3[nH]2)c1
28. Cn1nc(-c2ccccc2)c(-c2ccccc2)c(C(=O)NCC2CCCO2)c1=O (centres undefined)
29. O=C(CCN(Cc1ccco1)S(=O)(=O)c1ccc(Cl)cc1)Nc1ccc(Cl)cc1
30. Cn1ncc(C(=O)O/N=C(\c2ccccc2)c2ccccc2N)c1-n1cccc1
31. CCOC(=O)C1CCCN(S(=O)(=O)c2ccc(OC)cc2)C1 (centres undefined)
32. C(C=Cc1ccn[nH]1)=Cc1ccccc1

compound no.	25	26	27	28	29	30	31	32
GIV Gai3 FP	103	98	99	101	104	107	96	104
HCMV NEC inh	-9	5	-9	-17	-31	1	-8	-9
Sa growth inh	92	97	93	nt	97	102	94	92
Sa growth inh second temp	84	80	75	nt	89	99	98	79

33. CCCc1nc(-c2cc3cccc(C)c3nc2N2CCCCC2)no1
34. O=C(O)C1CN=C(Cc2ccccc2)N1 (centres undefined)
35. COc1ccc(-c2nc3scc(CCNC(=O)/C=C/c4ccco4)n3n2)cc1
36. COC(=O)/C=C/c1ccc(SC)cc1
37. CCc1ccc(CCC(=O)Nc2ccc(C)c(C)c2)o1
38. COC(=O)CCS(=O)(=O)c1cccs1
39. O=c1[nH][nH]c(=S)n1Cc1ccco1
40. CCOCc1ccccc1Nc1ncnc2onc(-c3ccc(Cl)cc3)c12

compound no.	33	34	35	36	37	38	39	40
GIV Gai3 FP	106	98	115	101	104	105	101	109
HCMV NEC inh	-8	1	9	nt	-8	-7	-42	9
Sa growth inh	nt	89	83	109	115	93	86	103
Sa growth inh second temp	nt	89	64	88	82	89	82	92

A draw from above in order of molecular weight, smallest number first.
34. O=C(O)C1CN=C(Cc2ccccc2)N1 (centres undefined)
36. COC(=O)/C=C/c1ccc(SC)cc1
40. CCOCc1ccccc1Nc1ncnc2onc(-c3ccc(Cl)cc3)c12

compound no.	34	36	40
GIV Gai3 FP	98	101	109
HCMV NEC inh	1	nt	9
Sa growth inh	89	109	103
Sa growth inh second temp	89	88	92

(further entries)
41. COc1ccc(-c2csc3ncnc(Nc4cc(OC)cc(OC)c4)c23)cc1
42. CCO/C=C(/C#N)c1nc(C)cs1
43. O=S(=O)(Cc1c(F)cccc1Cl)c1cccs1
44. COc1cc(OC)c(N(C)C(=O)c2c(C)oc3ncnc(N4CCCCC4)c23)cc1Cl
45. CCOC(=O)C1CCC(CN(Cc2ccc(Cl)cc2)S(=O)(=O)c2ccc(F)c(C(=O)Nc3cccc(F)c3)c2)CC1 (centres undefined)
46. Cc1ccc(NC(=O)c2c(C)nc3sc(C(=O)Nc4ccc(F)cc4)c(N)c3c2-c2ccc(Cl)cc2)c(C)c1
47. Cc1ccc(S(C)(=O)=NS(=O)(=O)c2cccc3nsnc23)cc1 (centres undefined)
48. Cc1cc(C)c(S(=O)(=O)Nc2ccc(-c3ccc(N4CCCCCC4)nn3)cc2)cc1C

compound no.	41	42	43	44	45	46	47	48
GIV Gai3 FP	105	nt	104	105	104	101	100	103
HCMV NEC inh	nt	-24	-1	nt	nt	9	-115	nt
Sa growth inh	104	128	91	109	134	91	90	109
Sa growth inh second temp	100	66	72	96	94	88	80	88

49. O=C(Nc1ccccc1Br)c1ccccc1Oc1ccccc1
50. Fc1ccc(C2CC(c3ccco3)=Nc3ccccc3S2)cc1 (centres undefined)
51. CN1CCN(CCCNS(=O)(=O)c2ccc(-c3cc(C(F)(F)F)no3)s2)CC1
52. O=c1[nH]c(=S)[nH]nc1Cc1ccc(Cl)c(Cl)c1
53. CSc1nc(-c2ccccc2)[nH]c1S(=O)(=O)c1ccccc1
54. Cc1ccc(-n2nc(C)c3c(C)c(CCC(=O)NN4CCOCC4)c(C)nc32)cc1C
55. Cc1nnc(Nc2ccc3c(c2)OCO3)[nH]c1=O
56. Cc1ccc(C(=O)/C=C2/NCCNC2=O)cc1

compound no.	49	50	51	52	53	54	55	56
GIV Gai3 FP	nt	107	104	nt	108	109	103	102
HCMV NEC inh	-19	-5	-50	-27	17	4	-13	-88
Sa growth inh	80	99	118	66	79	105	85	87
Sa growth inh second temp	76	95	80	36	31	97	78	86

57. CC(C)n1cnc2nc(COc3ccccc3NC(=O)Nc3cccc(F)c3)cc(=O)n21
58. COC(=O)Cc1c(C)n[nH]c1C
59. CCc1ccccc1NC(=O)CSc1nnc(-c2cc(OC)c(OC)c(OC)c2)o1
60. O=C(CSc1nnc(CCN2C(=O)c3cccc4cccc(c34)C2=O)n1-c1ccccc1)NCc1cccnc1
61. COc1cc(OC)c(NC(=O)c2cc3c(CO)cnc(C)c3oc2=O)cc1Cl
62. Cc1ccc(N2CCN(c3cnn(C45CC6CC(CC(CC(=O)O)(C6)C4)C5)c(=O)c3Cl)CC2)c(C)c1
63. O=C(c1csc(S(=O)(=O)NC2CC2)c1)N1CCOCC1
64. CCC(=O)N1CCc2cc(Br)cc(S(=O)(=O)C3(C(=O)OC)CC3)c21

compound no.	57	58	59	60	61	62	63	64
GIV Gai3 FP	101	nt	104	100	100	102	105	101
HCMV NEC inh	-8	-25	8	-121	8	-38	-23	nt
Sa growth inh	nt	75	103	nt	99	104	nt	107
Sa growth inh second temp	nt	94	90	nt	108	95	nt	94

65. N#Cc1ccc(C(=O)N2CCCC2)cc1
66. CCC(C(=O)N1CCN(c2cc(C)ccc2C)CC1)N1CCN(Cc2ccc(F)cc2)C(=O)C1=O (centres undefined)
67. Cc1nn(-c2ccc(F)cc2)c(Cl)c1/C=C/C(=O)N1CCN(CC2CCCO2)CC1 (centres undefined)
68. COc1ccc(CCN(C)CN2C(=O)C3CC=CCC3C2=O)cc1OC (centres undefined)
69. CCN(CC)C(=O)Cn1c(=O)n(-c2ccc(OC)cc2OC)c(=O)c2c(C)c(C(=O)N(CC)CC)sc21
70. CCOc1ccc(-c2noc(-c3scc(-c4cccc(C)c4)c3-n3cccc3)n2)cc1
71. O=C(Nc1ccc(Cl)c(C(F)(F)F)c1)C1CCCN(S(=O)(=O)c2cccc3cccnc23)C1 (centres undefined)
72. O=C(NCc1nc(-c2ccccc2)no1)C(c1ccccc1)c1ccccc1

compound no.	65	66	67	68	69	70	71	72
GIV Gai3 FP	nt	103	nt	nt	105	98	97	114
HCMV NEC inh	-36	-26	-36	-34	nt	-8	nt	7
Sa growth inh	98	nt	102	72	110	nt	86	119
Sa growth inh second temp	78	nt	89	88	99	nt	86	93

73. O=C(CC(=O)c1ccccc1)Nc1cccc(C(=O)O)c1
74. CCC(Sc1nc2cc(OC)c(OC)cc2c(=O)n1Cc1ccco1)C(=O)Nc1ccc(C)cc1 (centres undefined)
75. CCOc1ccc(Nc2nc3cc(C)ccc3cc2C)cc1
76. O=C(NN1C(=O)c2ccccc2NC1c1ccco1)c1ccc(Br)cc1 (centres undefined)
77. Cc1ccc(NC(=O)N2CCCn3nc(C)cc32)c(Cl)c1
78. N#CC(C(=O)NCc1ccc2c(c1)OCO2)c1ccccc1 (centres undefined)
79. CNC(=O)N1CCCC(Cn2cccc2)C1 (centres undefined)
80. Cc1nc2ncnn2c(C)c1CCC(=O)OCc1ccc(C#N)cc1

compound no.	73	74	75	76	77	78	79	80
GIV Gai3 FP	nt	108	101	102	109	103	100	nt
HCMV NEC inh	-6	nt	nt	4	-12	-22	-6	-5
Sa growth inh	85	82	106	107	nt	96	112	77
Sa growth inh second temp	84	86	94	90	nt	96	97	95

81. CC1CN(CC(O)COc2ccc(C(C)C)cc2)CC(C)O1 (centres undefined)
82. CC(=O)Nc1ccc(-n2c(C)ccc2-c2ccccc2)cc1
83. Cc1ccc(CNC(=O)c2ccc(CSCc3ccccc3Cl)o2)cc1
84. Cc1c(C)c(O)c(Cc2ccc3ccccc3n2)c(C)c1O
85. CCCCN(Cc1ccco1)C(=O)Cn1ncc2c1-c1cc(C)ccc1OC2
86. CN(C)c1nc(N)c2c(N)nc3c(c2c1C#N)CC(=O)N3C(=O)NC12CC3CC(CC(C3)C1)C2
87. CCOc1ccc2cc(-c3nnc(Nc4ccccc4F)s3)c(=O)oc2c1
88. N#Cc1ccc2c(c1)nc1c3ccc4c5c(ccc(c(=O)n21)c53)C(=O)NC4=O

compound no.	81	82	83	84	85	86	87	88
GIV Gai3 FP	nt	102	98	nt	101	nt	133	97
HCMV NEC inh	0	-16	nt	-2	nt	0	-32	-54
Sa growth inh	99	98	45	104	106	97	96	0.9*
Sa growth inh second temp	88	85	35	106	88	94	87	0.1*

89. CCOc1ccc(NC(=O)C2CCCN(S(=O)(=O)c3ccc(Br)s3)C2)cc1 (centres undefined)
90. CCOc1ccc2nc(NCCO)[nH]c2c1
91. CCc1ccc2nc3nc(C)cc(C)c3c(N)c2c1
92. COc1cccc(NC(=O)CCS(=O)(=O)c2ccc3c(c2)oc(=O)n3C)c1
93. COc1ccc(OC)c(NC(=O)c2ccc3c(Cl)c4c(nc3c2)CCCC4)c1
94. COc1ccc(NC(=O)Cn2c(=O)n(-c3ccc(OC)c(OC)c3)c(=O)c3ccccc32)cc1
95. CCc1nn(-c2ccccc2)c2nc(-c3ccccc3)nc(SCC(=O)Nc3ccc4c(c3)OCO4)c12
96. NC(N)=NC(N)=Nc1ccc(Br)cc1

compound no.	89	90	91	92	93	94	95	96
GIV Gai3 FP	104	100	117	103	98	105	102	nt
HCMV NEC inh	-35	nt	-68	nt	-27	-11	-10	2
Sa growth inh	94	101	68	98	112	91	nt	85
Sa growth inh second temp	90	92	83	92	89	87	nt	94
